Insulin prom inh – TRM-6 insulin promoter activity inhibition; TRM-6 cells (human fetal islet line), insulin promoter-eGFP reporter, imaging; reporter expression induced with tamoxifen; inhibition, % at 2 µM; hit rate 0.9% among 130,000; AID 1273;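 active = inhibition above the mean plus 3 SD, with well images judged a real hit on visual review, cut at about 60% in these data, passing the limit was not always enough; inconclusive = inhibition over the cutoff but images rejected on review; inactive = inhibition not above the cutoff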
RGS16-Gao HTS – RGS16-Galphao interaction regulator (human); O15492+P09471; bead-based flow cytometry RGS16-Galphao binding, fluorescence; actives lie on both sides; binding response (% of control), % at 10 µM; hit rate 0.38% among 220,000; AID 1441;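 active = below 25% or above 175%, edge rows of some plates excepted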;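 note: Galphao activated by GDP with aluminum fluoride before binding; 100% = wells without compound and 0% = beads without RGS; some results beyond the cut were filed as inactive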
HSV replic up – HSV replication enhancement; HSV replication augmentation in cells, fold increase; maximum fold increase; hit rate 0.005% among 220,000; AID 1956;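 active = peak rise of 1.5-fold or more in the series; inconclusive = self-fluorescent or not available for retest; tested in PC3 cells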;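 note: first round at 10 µM; read as green reporter fluorescence; hits show the peak of a series up to 25 µM; 1 = signal of infected wells without compound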
PKD1 inh – PKD1 (human) kinase inhibition; Q15139; PKD1 kinase fluorescence polarization assay; inhibition, %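 (about 10 µM by stock and volumes)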; hit rate 0.056% among 200,000;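 active = inhibition of 50% or more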;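 note: controls were vehicle for no effect and a reference inhibitor for full effect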
Target sequence (Q15139 whole entry, looked up): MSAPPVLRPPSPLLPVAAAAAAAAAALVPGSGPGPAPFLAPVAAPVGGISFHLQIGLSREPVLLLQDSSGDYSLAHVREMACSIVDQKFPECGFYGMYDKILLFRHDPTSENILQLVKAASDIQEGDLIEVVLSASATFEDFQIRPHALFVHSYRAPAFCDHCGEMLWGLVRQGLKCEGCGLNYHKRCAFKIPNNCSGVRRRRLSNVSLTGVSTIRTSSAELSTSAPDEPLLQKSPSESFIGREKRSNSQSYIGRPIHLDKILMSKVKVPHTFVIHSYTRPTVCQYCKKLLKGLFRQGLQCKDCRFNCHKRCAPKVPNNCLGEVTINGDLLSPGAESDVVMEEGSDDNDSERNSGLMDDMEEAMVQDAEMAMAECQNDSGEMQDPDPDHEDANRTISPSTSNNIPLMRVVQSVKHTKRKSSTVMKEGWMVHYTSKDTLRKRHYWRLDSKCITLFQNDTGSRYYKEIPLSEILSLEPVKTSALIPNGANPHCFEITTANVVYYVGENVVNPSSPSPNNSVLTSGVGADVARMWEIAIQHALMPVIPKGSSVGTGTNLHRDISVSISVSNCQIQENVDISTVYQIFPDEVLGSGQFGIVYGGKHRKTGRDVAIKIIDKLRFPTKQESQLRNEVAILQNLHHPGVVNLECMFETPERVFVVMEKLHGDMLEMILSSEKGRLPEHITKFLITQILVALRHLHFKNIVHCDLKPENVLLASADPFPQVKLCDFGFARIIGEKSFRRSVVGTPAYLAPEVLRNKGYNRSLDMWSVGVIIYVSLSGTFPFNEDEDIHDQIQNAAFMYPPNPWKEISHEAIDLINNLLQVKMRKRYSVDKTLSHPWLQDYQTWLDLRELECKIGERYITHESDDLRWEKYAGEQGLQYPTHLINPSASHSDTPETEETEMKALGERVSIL
GALR2 agonist – agonists of human galanin receptor 2 (GALR2); O43603; GALR2-expressing cells, agonist activation read-out; activation, %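 (tested at 5 µM)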; hit rate 0.48% among 140,000;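 active = above mean plus 3 SD of all compounds, about 5% in these data, not always enough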;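 note: 0% = vehicle buffer wells and 100% = reference agonist at full effect; tested in CHO reporter cells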
Insulin prom inh cell count – recorded beside Insulin prom inh, whose call it bears; normalized cell count, %; measured here: cell count, toxicity; reference of the scale not given here;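 cells exposed to compound for 48 h; stained nuclei by imaging scaled within each plate; lower means fewer cells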
HSV replic up primary fold – also measured in HSV replic up; calls as there; fold increase; compound at 10 µM; measured here: primary screen fold increase 10 uM; tested in PC3 cells;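 GFP signal in the first replicate; 1 = infected wells without compound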
* = called active by the depositor; i = inactive; ? = inconclusive; . = not tested or not shown.

structure,Insulin prom inh,Insulin prom inh cell count,RGS16-Gao HTS,HSV replic up,HSV replic up primary fold,PKD1 inh,GALR2 agonist
Cc1nn(-c2cccc(Cl)c2)c(Cl)c1/C=N/NC(=O)c1cccnc1,4,94,112,i,0.8,4,1.0
CCCCSc1ncc(C(=O)OCC)c(N)n1,80*,160*,101,i,1,-6,-2.4
O=C1CC(c2cccc(Cl)c2)CC(O)=C1C=NCCCO (centres undefined),30,134,98,i,0.96,-1,-3.2
CCCCN(Cc1cc2ccccc2[nH]c1=O)C(=O)c1ccccn1,42,108,104,i,1.1,-2,-0.2
CCCc1nnc(NC(=O)CSc2ncn[nH]2)s1,.,.,97,i,0.88,-4,-0.1
OCC(O)C1OC(Nc2ccc(Br)cc2)C(O)C1O (centres undefined),.,.,106,i,0.92,2,.
CCN(CC(=O)Nc1ccccc1OC)C(=O)COc1ccc2ccccc2c1,-30,114,102,i,0.96,-8,-1.2
CC(C)(C)NC(=O)C1CC(=O)OC12CCCCC2 (centres undefined),9,97,106,i,1.1,-1,-1.4
Cc1cc(C)cc(OCC(=O)OCC(=O)c2c(N)n(C)c(=O)n(C)c2=O)c1,-38,79,107,i,1,-13,-2.0
COCCNC(=O)/C(C#N)=C/c1ccc(OC(=O)c2cccs2)c(OC)c1,-58,52,99,i,0.95,5,.
Nc1cc(=O)[nH]c(SCC(=O)Nc2nnc(-c3ccccc3)s2)n1,.,.,104,i,0.86,-4,.
Cc1ncoc1C(=O)Nc1ccccc1C(N)=O,-44,170,103,i,1,2,-1.6
CCCCC(=O)NC(=S)Nc1c(C)cc(Br)cc1C,-21,110,99,i,1,-10,0.4
Cc1ccc(C)c(N(C(=O)Cn2nnc3ccccc32)C(C(=O)NC(C)(C)C)c2ccsc2)c1 (centres undefined),-70,67,93,i,0.89,-4,-0.5
CC(C)CN(CC(C)C)C(=O)COc1ccccc1C(N)=O,-24,110,100,i,1.1,-7,.
COc1ccc(Cl)cc1NC(=O)CCN1CCOCC1,.,.,101,i,0.94,.,.
CC1(C)CC(=O)CC(=O)/C1=N\Nc1c(Cl)cc(Cl)cc1Cl,.,.,102,i,0.91,2,-0.4
c1ccc2cc(-c3cc4ccccn4c3)ccc2c1,-17,139,102,i,0.87,-8,-1.5
CCCNC(=O)Nc1cc(S(=O)(=O)CC)ccc1O,.,.,100,i,1.1,.,.
Cc1cc(CNC(=O)CC2C(=O)NCCN2Cc2ccccc2C(F)(F)F)nn1C (centres undefined),.,.,94,i,0.92,-1,.
CCOC(=O)C1CCN(Cc2cnc(Oc3ccc(OC)cc3)s2)CC1,0,90,100,i,0.99,-9,-1.4
COc1ccccc1-c1cc(C(F)(F)F)nc(S(C)(=O)=O)n1,9,69,106,.,.,2,10
CCC(C)(C)NC(=O)CN(Cc1cccs1)C(=O)CNS(=O)(=O)c1ccc(C)cc1,37,112,100,i,0.8,-6,-0.5
Cc1oc(-c2cccs2)nc1CN1CCN(C(C)C)C(CCO)C1 (centres undefined),.,.,102,i,1,-4,.
O=C(Cn1cccc1)N1CCc2ccccc21,.,.,100,i,0.99,-23,-4.1
Cc1cc(C)c(S(C)(=O)=O)c(N(C)NC(=O)c2c(F)cccc2F)n1,0,103,108,i,0.97,-2,.
CC1(C)CC2CC(C)(CN2C(=O)c2ccc([N+](=O)[O-])cc2[N+](=O)[O-])C1 (centres undefined),.,.,97,i,0.99,-3,.
COc1cc(/C=N/OCC(=O)NC2CCCCC2C)ccc1OCc1ccc(Cl)cc1 (centres undefined),-24,50,103,i,1,-10,-1.9
CCC1(C)Cc2c(sc3[nH]c(=O)[nH]c(=O)c23)CS1 (centres undefined),50,89,100,i,0.89,-10,-2.6
CCOC(=O)C1CCN(c2c(N3CCCC(C(=O)OCC)C3)c(=O)c2=O)CC1 (centres undefined),.,.,105,i,0.89,10,0.3

7 records drawn at random from those above:
structure,Insulin prom inh,Insulin prom inh cell count,RGS16-Gao HTS,HSV replic up,HSV replic up primary fold,PKD1 inh,GALR2 agonist
Cc1cc(C)cc(OCC(=O)OCC(=O)c2c(N)n(C)c(=O)n(C)c2=O)c1,-38,79,107,i,1,-13,-2.0
CC(C)CN(CC(C)C)C(=O)COc1ccccc1C(N)=O,-24,110,100,i,1.1,-7,.
CC(C)(C)NC(=O)C1CC(=O)OC12CCCCC2 (centres undefined),9,97,106,i,1.1,-1,-1.4
Cc1ncoc1C(=O)Nc1ccccc1C(N)=O,-44,170,103,i,1,2,-1.6
O=C(Cn1cccc1)N1CCc2ccccc21,.,.,100,i,0.99,-23,-4.1
CCN(CC(=O)Nc1ccccc1OC)C(=O)COc1ccc2ccccc2c1,-30,114,102,i,0.96,-8,-1.2
COc1cc(/C=N/OCC(=O)NC2CCCCC2C)ccc1OCc1ccc(Cl)cc1 (centres undefined),-24,50,103,i,1,-10,-1.9

Only Insulin prom inh, for some of the entries so far:
Compound,Insulin prom inh
CCC1(C)Cc2c(sc3[nH]c(=O)[nH]c(=O)c23)CS1 (centres undefined),50
COc1cc(/C=N/OCC(=O)NC2CCCCC2C)ccc1OCc1ccc(Cl)cc1 (centres undefined),-24

The list goes on:
structure,Insulin prom inh,Insulin prom inh cell count,RGS16-Gao HTS,HSV replic up,HSV replic up primary fold,PKD1 inh,GALR2 agonist
Cc1cc(C)cc(-n2c(O)c(C=NC3CCS(=O)(=O)C3)c3ccccc3c2=O)c1 (centres undefined),31,85,100,i,0.91,5,-0.5
Nc1c(N(CCO)C(=O)C2CCCCC2)c(=O)[nH]c(=O)n1Cc1ccccc1,.,.,86,i,0.95,.,.
Cc1cc2c(c(=O)o1)C(CC(C)C)C(C#N)=C(N)O2 (centres undefined),.,.,127,?,.,0,-1.9
CC(CCc1ccccc1)NCC#N (centres undefined),.,.,103,i,0.68,.,.
O=C1c2ccccc2C(=O)N1Cc1nc2ccccc2c(=O)n1CCCN1CCOCC1,.,.,114,i,0.73,4,-0.8
CS(=O)(=O)N(CC(=O)Nc1ccc2c(c1)OCCO2)Cc1ccccc1,25,86,98,i,1,-8,-1.9
c1ccc(N2CCN(c3nc(-c4ccccn4)nc4ccccc34)CC2)cc1,.,.,101,i,0.38,-4,0.7
CC1=NN(Cc2ccccc2)C(=O)C1C(c1ccncc1)C(C#N)C#N (centres undefined),.,.,103,i,0.97,.,.
O=C1CC(c2nc3ccccc3[nH]2)CN1c1cccc(C(F)(F)F)c1 (centres undefined),20,83,96,i,0.76,2,-0.1
CC(=O)Cn1cnc2sc(-c3ccccc3)cc2c1=O,25,66,112,i,0.94,-2,0.6

Assay outcomes from PubChem BioAssay.

Rows were taken by chance (roughly 1.3% active in at least one column).
